Source: PubChem BioAssay (National Center for Advancing Translational Sciences (NCATS))
Cruzain noTriton: qHTS Assay for Promiscuous and Specific Inhibitors of Cruzain (without detergent). Cruzipain (Trypanosoma cruzi), P25779. purified cruzain, Z-FR-AMC fluorescence, no detergent. Potency, µM, for inactives: max response, negative = inhibition, actives largely listed as inhibitors. 200,000 tested, 2.3% active;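 also: plate controls were enzyme without inhibitor for no effect and buffer without enzyme for full effect; nearly all actives have a fitted effect of over 40% in size; top concentration of the series not given in the record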
Target sequence (P25779 123-467 limits assumed): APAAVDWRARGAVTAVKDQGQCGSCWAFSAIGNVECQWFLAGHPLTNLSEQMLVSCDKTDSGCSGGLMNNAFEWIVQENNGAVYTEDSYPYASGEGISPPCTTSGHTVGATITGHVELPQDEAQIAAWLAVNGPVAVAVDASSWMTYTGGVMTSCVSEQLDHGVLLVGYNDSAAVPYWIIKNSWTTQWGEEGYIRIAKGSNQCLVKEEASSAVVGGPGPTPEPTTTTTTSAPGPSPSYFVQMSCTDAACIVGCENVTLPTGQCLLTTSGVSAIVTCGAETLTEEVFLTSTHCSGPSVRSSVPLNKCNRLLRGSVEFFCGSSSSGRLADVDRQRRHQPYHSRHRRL
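Detergent-free condition (0.00005% Triton X-100) in acetate buffer pH 5.5 with DTT. 1.5 nM enzyme and compound were pre-mixed 15 min, then 2 uM Z-FR-AMC substrate added; reaction progress from fluorescence change between first and third reads (60 s).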
StopGo reporter: High Throughput Screening for Foot and Mouth Disease Virus Antivirals. 410,000 tested, 1.2% active. Potency, µM (titrated, usually from 57.9 µM), for inactives: at the top dose signal change, negative = less light. human cells with a luciferase reporter of 2A StopGo recoding; control for the full effect not named in the record; active = well fitted falling curve with a large enough effect; inconclusive = small, poorly fitted or top-dose-only effect; inactive = no such curve, though single readings can be large or run the other way; tested in HEK293T cells; also: % is scaled to controls: 0 for no effect and ±100 for the full control effect; nearly all actives have a fitted effect of over 45% in size; luciferase light after 4 h
RE007 growth inh: qHTS Assay for Inhibitors of the HIV-1 protein Vpr; AID 651644, 2012; S. pombe RE007 Vpr strain, BacTiter-Glo ATP luminescence, 24 h; control for the full effect not named in the record; 360,000 tested, 0.21% active; Potency, µM (top dose mostly 92.2 µM), for the others: at the highest dose activity change, negative = less growth; active = well fitted falling curve with a large enough effect; inconclusive = small, poorly fitted or top-dose-only effect; inactive = no such curve, though single readings can be large or run the other way;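 also: % is scaled to controls: 0 for no effect and ±100 for the full control effect; nearly all actives have a fitted effect of over 50% in size; the assay follows cell death caused by Vpr and the record does not say whether a fall means rescue or toxicity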
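Fission yeast RE007 carrying one integrated HIV-1 vpr copy, seeded at OD 0.01 in PMG+AL medium with 23 nL pinned compound. Grown 24 h at 30 degrees; viability read by BacTiter-Glo luminescence after 5 min.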
Lassa entry inh: qHTS for Inhibitors of binding or entry into cells for Lassa Virus | Lassa virus pseudotype entry inhibition, cell reporter; control for the full effect not named in the record | Potency, µM (doses to about 37.9 µM), for the others: top-dose activity change, negative = inhibition, usual class: inhibitors | 300,000 tested, 1.2% active | AID 540256, 2011; active means well fitted inhibition curve with a large enough effect; inconclusive means small, poorly fitted or top-dose-only effect, or effect the other way; inactive means flat fitted curve, though single readings scatter; tested in HEK293 cells; also: % is scaled to controls: 0 for no effect and ±100 for the full control effect; nearly all actives have a fitted effect of over 50% in size; luciferase read-out
Cruzain Triton: qHTS Assay for Promiscuous and Specific Inhibitors of Cruzain (with detergent). Cruzipain (Trypanosoma cruzi), P25779. purified cruzain, Z-FR-AMC fluorescence, 0.01% Triton. Potency, µM, without a hit: max response, negative = inhibition, hits mostly inhibitors. 200,000 tested, 0.43% active. AID 1478, 2009;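 also: plate controls were neutral wells for no effect and buffer without enzyme for full effect; nearly all actives have a fitted effect of over 40% in size; top concentration of the series not given in the record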
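Read-out: AMC fluorescence (360 nm excitation, 450 nm emission), four reads over 2 min, first-to-third difference used. Conditions: cruzain 1.5 nM, Z-FR-AMC 2 uM, pH 5.5 acetate, 5 mM DTT, 0.01% Triton X-100.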
Marburg entry inh: qHTS for inhibitors of binding or entry into cells for Marburg Virus; Marburg virus pseudotyped entry inhibition, cell reporter; control for the full effect not named in the record; about a third of the inactives were read at about 46 µM; 300,000 tested, 1.8% active; AID 540276, 2011; Potency, µM (series often up to 37.8 µM), for inactives: at the top dose activity change, negative = inhibition, most hits filed as inhibitors; active = well fitted inhibition curve with a large enough effect; inconclusive = small, poorly fitted or top-dose-only effect, or effect the other way; inactive = flat fitted curve, though single readings scatter; tested in HEK293 cells; about a fifth of its hits are not listed in these tables; also: % is scaled to controls: 0 for no effect and ±100 for the full control effect; luciferase read-out
SARS PLP yeast: qHTS of Yeast-based Assay for SARS-CoV PLP | S. cerevisiae expressing SARS-CoV PLpro, growth rescue; control for the full effect not named in the record | Potency, µM (series often up to 32.9 µM), without a hit: at the highest dose activity, positive = growth rescue | 330,000 tested, 0.19% active | AID 485353, 2010; active means well fitted rising curve with a large enough effect; inconclusive means small, poorly fitted or top-dose-only effect; inactive means no such curve, though single readings can be large or run the other way; also: 0% is about no effect; nearly all actives have a fitted effect of over 55% in size; growth read by luminescence after 48 h
NS1 function inh: qHTS Assay for Inhibitors of Influenza NS1 Protein Function | S. cerevisiae slowed by influenza A NS1, growth recovery by OD600 | Potency, µM (doses to about 46.1 µM), without a hit: at the highest dose activity, positive = more growth | 270,000 tested, 0.4% active | AID 2326, 2010; active means well fitted rising curve with a large enough effect; inconclusive means small, poorly fitted or top-dose-only effect; inactive means no such curve, though single readings can be large or run the other way; also: nearly all actives have a fitted effect of over 50% in size
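Growth recovery, yeast-based: influenza A NS1 expressed in S. cerevisiae causes slow growth, and suppressors are detected by OD600. The parent strain without NS1 is used as positive control.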
An asterisk follows results filed as active; ? = inconclusive; / = no result given; & = joins results of further samples; [ ] = another dose, or the depositor's remark. Unless noted, calls follow the shape of the dose curve; as a rule, active = well fitted curve in the direction sought with a large enough effect; inconclusive = small, poorly fitted or top-dose-only effect, or another doubt; inactive = no such curve, though single readings can be large; an effect the other way counts as inactive or inconclusive. Potency is read from the fitted curve at half-maximal effect.

canonical_smiles,Cruzain noTriton,StopGo reporter,RE007 growth inh,Lassa entry inh,Cruzain Triton,Marburg entry inh,SARS PLP yeast,NS1 function inh
Cc1nccn1C[C@@H]1CCc2c(c3ccccc3n2C)C1=O,-16%,-23%,2%,/,-2.2%,/,-10%,-16%
COC(=O)c1cc(=O)cc(C(=O)OC)o1,6%,13%,21%,24%,1.2%,25%,-24%,3%
CCOC(=O)c1c(C)oc2nc(C)nc(NCC3CCN(Cc4ccccc4C)CC3)c12,-7%,-9%,/,17%[46.1 µM],-1.7%,/,/,/
CCC(=O)Nc1c(C(=O)Nc2cccc(OC)c2)oc2ccccc12,1%,13%,-10%,-19%,-5.4%,5%,0%,-5%
N#CCc1ccc(OC(=O)c2cnccc2C(F)(F)F)cc1,/,18%,-1%,23%[46.1 µM],/,-11%[46.1 µM],-1%,-2%
Cc1cc(C)nc(Nc2ncc(O)n2-c2ccc(Br)cc2)n1,/,4%,1%,4%,/,?,0%,-9%
CCC(=O)Nc1ccc(C(=O)Nc2cccnc2)cc1,-1%,67%[activator],3%,?,-1.5%,2%,2%,-2%
O=C(Nc1ccc2nc(SCc3ccc(Cl)cc3)sc2c1)c1ccccc1C(=O)N1CCOCC1,16%,?,-1%,?,-6.0%,?,0%,11%
O=C(c1ccco1)N1CCN(/C(=N/S(=O)(=O)c2cccs2)c2ccccc2Cl)CC1,2%,-9%,19%,-3%,-2.1%,-1%&-1%,1%,-8%
O=C(Nc1ccc(F)cc1F)N1CCCN(CCOc2ccccc2)CC1,/,16%,5%,/,/,/,-5%,-2%
O=c1[nH]c2ccc(S(=O)(=O)NCc3ccccc3)cc2[nH]1,/,3%,20%,10%,/,2%,0%,/
O=C(COc1ccc2ccc(=O)oc2c1)Nc1ccc(CN2CCOCC2)cc1,/,-1%,-6%,9%[46.1 µM],/,1%[46.1 µM],1%,8%
Cc1ccc(S(=O)(=O)CC(=O)N2CCN(c3ccccc3F)CC2)cc1,/,5%,3%,12%,/,10%,3%,-9%
Cc1nc(SCC(=O)N2CCN(c3ccccc3)CC2)c2oc3ccccc3c2n1,?,25µM*,-1%,?,-5.0%,-28%,-20%,-50%
C=CCc1cc(C)ccc1OCCCn1ccnc1,/,-20%,-14%,-19%[46.1 µM],/,17%[46.1 µM],-3%,-32%
Cc1cc2ccccc2n1CCNC(=O)c1ccc(Br)cc1,-22%,-7%,/,-13%[46.1 µM],-9.2%,2%[46.1 µM],/,/
Cc1ccc(Nc2nc3ccccc3s2)c(C)c1,-3%,-37%,?,10µM*,-9.1%,8.2µM*,2%,-23%
O=C(Nc1cccc(-c2nc3ccccc3o2)c1)C(F)(F)F,1%,32µM*,/,9%[46.1 µM],-5.0%,/,/,/
COc1cccc(N2CC(C(=O)Nc3nnc(SCc4cccnc4)s3)CC2=O)c1 (stereo not given),3%,-11%,1%,-1%,-11%,29%,?,2%
Cc1oc(-c2cccc(Cl)c2)nc1CSc1nc2c(c(=O)[nH]1)CCC2,5%,-6%,3%,2%,-2.8%,19%,-9%,-10%
Cc1ccc(C)c(N2C(=O)N(Cc3cc(=O)n4ccccc4n3)c3ccccc3S2(=O)=O)c1,?,?,/,?,-4.4%,/,/,/
COc1nnc(-c2ccc(N3CCOCC3)c(NC(=O)c3ccccc3)c2)c2ccccc12,?,-18%,8%,-12%,-3.6%,?,-6%,1%
CC(=O)c1cccc(Nc2nc3ccccc3n3cnnc23)c1,/,7%,-9%,0%,/,?,-1%,7%
Cc1oc(-c2cccc(Cl)c2)nc1CN1CCCC(C(=O)N2CCN(c3ccc(F)cc3)CC2)C1 (stereo not given),-18%,?,/,1%[46.1 µM],0.2%,?,/,/
O=C(CCCCCn1c(=O)[nH]c2ccccc2c1=O)NCc1ccccc1,2%,-8%,/,-12%[46.1 µM],-0.4%,/,/,/
CN(C(=O)COC(=O)CSc1ccc(C(N)=O)cc1[N+](=O)[O-])C1CCS(=O)(=O)C1 (stereo not given),/,-10%,40%,11%[46.1 µM],/,11%,-7%,/
Cn1c(=O)[nH]c(=O)c2c1nc1n2CCN1c1ccccc1,10%,1%,/,4%[46.1 µM],2.5%,3%[46.1 µM],/,/
O=C(COC(=O)c1nc(Cl)ccc1Cl)c1ccc[nH]1,/,-8%,1%,-8%,/,-2%[46.1 µM],-1%,/
O=C(NCc1ccccc1)c1n[nH]nc1-c1ccccc1O,-7%,47%[activator],6%,0%,4.2%,?,1%,-2%
Cn1c(=O)c(C(=O)NNC(=O)c2ccccc2Cl)c(O)c2ccccc21,/,0%,-25%,-13%[46.1 µM],/,-11%[46.1 µM],-3%,-50%
COc1ccc(C(=O)N2CCCC(Nc3ccc(F)c(F)c3)C2)c(OC)n1 (stereo not given),/,-1%,0%,9%,/,4%,1%,11%
CC1CN=C(Nc2ccc(F)cc2)S1 (stereo not given),/,0%,-1%,15%,/,5%[46.1 µM],0%,/
CCCC12CN3CC(C)(CN(C1)C3c1ccc3c(c1)OCO3)C2=O (stereo not given),4%,-17%,-14%,17%,0.0%,13%,3%,-11%
COC(=O)C1=C(C)NC(C)=C(C(=O)OC)C1C(=O)OC1CCCCC1=O (stereo not given),11%,-8%&9%,-5%&26%,-2%[46.1 µM],-4.3%,?,2%,-1%
O=C(Nc1nnc(S(=O)(=O)N2CCOCC2)s1)c1ccccc1Br,/,-6%,3%,/,/,/,-1%,5%
COC1=C(Nc2ccccc2)C(=O)c2ccccc2C1=O,5%,-10%,?,?,-11%,19%,7%,-11%
NC(=S)c1ccc[n+]([C@@H]2O[C@@H](COP(=O)([O-])OP(=O)(O)OC[C@H]3O[C@@H](n4cnc5c(N)ncnc54)[C@H](OP(=O)(O)O)[C@H]3O)C(O)C2O)c1 (stereo not given in full),5%,/,/,/,5.3%,-8%,/,-16%
O=[N+]([O-])c1ccccc1-c1cc(-c2ccccc2O)n[nH]1,-7%,13%,-24%,?,-5.2%,?,-28%,-50%
C=CCN1C(=O)C(CC(=O)Nc2ccccc2F)S/C1=N\c1nccs1 (stereo not given),/,-10%,-21%,-7%,/,14%[46.1 µM],-4%,-71%
O=c1cc(-c2ccccc2)nc2nc(COc3ccccc3)[nH]n12,-1%,-10%,13%,3%,2.7%,0%,-2%,3%
CC(c1ccccc1F)n1cc(C(=O)Nc2ccc3nc[nH]c3c2)nn1 (stereo not given),6%,8%,13%,-1%,-4.0%,-29%,5%,5%
O=[N+]([O-])c1ccc(NCCNS(=O)(=O)c2ccccc2)cc1,/,-14%,16%,-9%[46.1 µM],/,-3%[46.1 µM],-1%,2%
Cc1sc2ncn(CC(=O)Nc3ccc(F)cc3Cl)c(=O)c2c1S(=O)(=O)N1CCN(c2ncccn2)CC1,8%,-19%,/,-15%[46.1 µM],-2.0%,-21%[46.1 µM],/,/
COc1ccc(S(=O)(=O)Nc2ccc(S(=O)(=O)N3CCCC3)cc2)cc1,-7%,/,1%,-11%,-5.9%,-4%,-3%,6%
Cc1ccc(S(=O)(=O)CC(=O)N2CC(C)OC(C)C2)cc1 (stereo not given),/,0%,-5%,5%[46.1 µM],/,9%[46.1 µM],-3%,1%
NC(=O)NC(CC(=O)NCCc1ccc(S(N)(=O)=O)cc1)c1ccc(Cl)cc1 (stereo not given),/,-13%,5%,/,/,-2%,1%,1%
CC(c1ccccc1)C1OCC(C[N+]2(C)CCCCC2)O1 (stereo not given),/,-1%,1%,/,/,17%[46.1 µM],1%,/
CC(C)(C)C1CCc2nc(NC(=O)COc3ccccc3[N+](=O)[O-])sc2C1 (stereo not given),5%,-27%,/,-22%[46.1 µM],-1.6%,28%[46.1 µM],/,/
O=C(Nc1nc(-c2ccc(-c3ccccc3)cc2)cs1)c1cnccn1,-8%,4%,-26%,6%,0.0%,-2%[46.1 µM],-11%,-1%
Cc1cccc(CC2CC(=O)N(C3CCCCC3)C2=O)c1 (stereo not given),-7%,-7%,-28%,-2%,-0.4%,-3%,-4%,-38%
C/C(CC1CC(COCCC(C)C)OC1=O)=N\NC(N)=S (stereo not given),-25%,-16%,-4%,-18%[14.3 µM],-12%,-7%,10%,19%
C/C(Cn1nnc2ccccc21)=N/OC(=O)c1c(F)cccc1F,/,-3%,11%,-10%[46.1 µM],/,-1%[46.1 µM],-2%,/
O=C(NCCc1ccccc1)c1ccc2nc(CCc3ccccc3)oc2c1,-11%,0%,/,27%[46.1 µM],1.1%,/,/,/
Cc1ccc(S(=O)(=O)CCC(=O)N2CCN(c3nc4c(C)c(Cl)ccc4s3)CC2)cc1,-5%,?,/,16%[46.1 µM],-0.1%,/,/,/
CCN(CC)C(=O)Oc1ccc(OC(=O)N(CC)CC)cc1,/,20%,-16%,?,/,14%[46.1 µM],-1%,-2%
Cc1ccc(-n2ncc3c(=O)n(CC(=O)NCC4CCCO4)cnc32)cc1 (stereo not given),4%,-3%,6%,5%,3.1%,17%,1%,-3%
C#CCn1c(O)c(N=NC(=O)CNC(=O)c2cccnc2)c2ccccc21,/,-17%,-3%,/,/,/,-4%,3%
CCN(CC)S(=O)(=O)c1ccc(NN)nc1,/,-13%,-5%,?,/,-2%[46.1 µM],-2%,/
CCN(CC)C(=O)C1CCCN(Cc2ccc(OC)c(C)c2C)C1 (stereo not given),5%,-10%,-13%,-10%,2.1%,-27%,-3%,-3%

Random draw from the library. Share with any hit: about 4.7%.
